High-throughput results: PubChem, Broad Institute
DUX4 txn inh – blocks DUX4-driven transcriptional activation; activity change, negative = inhibition, % (test concentration not listed); 293T-iDUX4 ZSCAN4-Gaussia luciferase reporter, 24 h; hits give low values; AID 1224904; 0.8% of 37,000 active;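 active = -10% or lower and over 25 points stronger than a control reporter; inconclusive = -10% or lower with a smaller gap; inactive = above -10%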;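 note: 0% = median of neutral control wells and -100% = median of positive control wells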
DUX4 txn inh difference – recorded beside DUX4 txn inh, whose call it bears; Gaussia minus Italica difference, %; measured here: selective DUX4 reporter inhibition;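 worked out from the two reporters; negative = selective loss of the DUX4 reporter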
DUX4 txn inh control – also measured in DUX4 txn inh; calls as there; activity change, negative = inhibition, %; measured here: Italica tet-on control reporter;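 0 = neutral control and -100 = positive control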
An asterisk follows results filed as active; ? = inconclusive; . = no result given; & = joins results of further samples. Only part of the results is shown (hit frequency here may not be typical).

#	DUX4 txn inh difference	DUX4 txn inh	DUX4 txn inh control	Compound
1	-7	1	7.5	COc1ccc(C#Cc2ccc3c(c2)[C@H]2[C@H](CCN2C(=O)CC2CC2)[C@@H](CO)N3)cc1
2	4	5	0.9	CC(C)NC(=O)N1[C@@H]2c3ccc(-c4ccccc4F)c(=O)n3C[C@@H]2[C@@H](CO)[C@@H]1C(=O)NC1CCC1
3	1	4	2.5	CCCN(C)C[C@H]1OCCCC[C@@H](C)Oc2ccc(NC(=O)CCCN(C)C)cc2C(=O)N([C@H](C)CO)C[C@H]1C
4	14	7	-7.0	C[C@@H]1CN([C@@H](C)CO)C(=O)c2cc(NS(=O)(=O)c3cn(C)cn3)ccc2O[C@H]1CN(C)CC1CCCCC1
5	-6	11	17	COc1ccc2c3c(n(C)c2c1)[C@@H](CO)N(C(=O)CN1CCOCC1)CC31CCN(C(=O)CC2CC2)CC1
6	6	4	-1.4	CCCC(=O)Nc1ccc2c(c1)OC[C@H](C)NC[C@@H](C)[C@@H](OC)CN(C)C2=O
7	2&-18	-1&-7	-3.1&10	CN(C)C(=O)c1ccc(-c2ccc(C3[C@@H]4CN(Cc5nccs5)C[C@H]3N4)cc2)cc1 (some centres not stated)
8	2	8	6.0	C/C=C/c1ccc([C@H]2[C@@H](CO)N(C(C)=O)C23CN(S(C)(=O)=O)C3)cc1
9	-4	0	3.6	CO[C@@H]1CN(C)C(=O)c2ccc(NC(=O)C3CCC3)cc2OC[C@H](C)N(Cc2ccccn2)C[C@H]1C
10	11	17	6.0	O=C(c1cnccn1)N1CC(=O)N2[C@H](CO)[C@H](c3ccc(C#CC4CC4)cc3)[C@@H]2C1
11	-4	-2	1.4	O=C(C[C@@H]1CC[C@H]2[C@@H](COC[C@@H](O)CN2CCc2ccccc2)O1)NCc1ccc(F)cc1
12	0	2	2.4	COc1cccc(C(=O)Nc2ccc3c(c2)C(=O)N(C)[C@@H]2CC[C@H](CC(=O)NCc4ccc(F)cc4)O[C@@H]2CO3)c1
13	1	5	3.9	O=C(C[C@@H]1CC[C@@H]2[C@H](COC[C@@H](O)CN2S(=O)(=O)c2ccccc2)O1)N1CCOCC1
14	.	?	.	O=C(Nc1cccc(F)c1)N1CCCCN2[C@H](CO)[C@H](c3ccc(C#Cc4cccnc4)cc3)[C@H]2C1
15	3	-2	-5.3	O=C(Nc1ccc2c(c1)[C@H]1C[C@H](CC(=O)N3CCc4ccccc4C3)O[C@@H](CO)[C@H]1O2)Nc1ccccc1F
16	-1	2	3.4	Cc1noc(C)c1S(=O)(=O)N(C)C[C@H]1OCCCC[C@H](C)Oc2ccc(NC(=O)CCC(F)(F)F)cc2C(=O)N([C@H](C)CO)C[C@H]1C
17	4	3	-0.5	CC=Cc1ccc2n(c1=O)C[C@H]1[C@H](CO)[C@@H](C(=O)NCC)[C@@H]2N1C(=O)c1ccccc1 (mixture of isomers)
18	-2	-4	-2.1	COc1ccc(-c2ccc([C@H]3[C@H](C#N)N(C(=O)c4cccc(F)c4)[C@H]3CO)cc2)cc1
19	1	1	0.1	CNC[C@@H]1Oc2ccc(NC(=O)Cc3cn(C)c4ccccc34)cc2C(=O)N([C@H](C)CO)C[C@@H]1C
20	6	?	2.3	N#Cc1ccc(-c2ccc(C3[C@@H]4CN(C(=O)C5CCOCC5)C[C@H]3N4)cc2)cc1 (some centres not stated)
21	16	21	5.1	N#C[C@H]1[C@@H](c2ccccc2C2=CCCCC2)[C@@H](CO)N1C(=O)C1CCOCC1
22	-3	-7	-4.1	Cc1cccc(-c2ccc([C@H]3[C@@H](CO)N4CCCCN(Cc5ccncc5)C[C@H]34)cc2)c1
23	-10	-8	2.1	C[C@@H](NC(=O)C[C@@H]1CC[C@H]2[C@@H](COC[C@H](O)CN2C(=O)Nc2cccc(Cl)c2)O1)c1ccccc1
24	5	6	0.6	O=C(Nc1ccc(F)cc1)N1CCCCN2[C@H](CO)[C@H](c3ccc(C#CC4CC4)cc3)[C@@H]2C1
25	-5	-5	-0.1	CCCC#Cc1ccc([C@H]2[C@@H](C#N)N(C(=O)C3CCC3)[C@@H]2CO)cc1
26	5	5	0.3	COc1ccc(C(=O)N2C[C@@H]3[C@H](c4ccccc42)[C@@H](CO)N3Cc2ccc3c(c2)OCO3)cc1
27	-2	5	7.2	Cc1noc(C)c1NC(=O)Nc1ccc2c(c1)C(=O)N([C@@H](C)CO)C[C@@H](C)[C@H](CN(C)C(=O)Nc1cccc3ccccc13)O2
28	5	22	17	O=C(Cc1ccccc1)N1CC(=O)N2[C@H](CO)[C@H](c3ccc(Br)cc3)[C@H]2C1
29	0	0	0.0	CN(C)C(=O)[C@H]1[C@H](CO)[C@H]2Cn3c(ccc(C4=CCCC4)c3=O)[C@H]2N1Cc1ccccn1
30	-1	3	3.6	CO[C@H]1CN(C)C(=O)c2cc(NC(=O)Nc3cccc(Cl)c3)ccc2OC[C@@H](C)N(C(=O)Nc2c(C)noc2C)C[C@@H]1C

Grouped by structure: the compounds so far with a Cl atom
#	DUX4 txn inh difference	DUX4 txn inh	DUX4 txn inh control	Compound
23	-10	-8	2.1	C[C@@H](NC(=O)C[C@@H]1CC[C@H]2[C@@H](COC[C@H](O)CN2C(=O)Nc2cccc(Cl)c2)O1)c1ccccc1
30	-1	3	3.6	CO[C@H]1CN(C)C(=O)c2cc(NC(=O)Nc3cccc(Cl)c3)ccc2OC[C@@H](C)N(C(=O)Nc2c(C)noc2C)C[C@@H]1C

2 records drawn at random from the list so far, as already listed:
#	DUX4 txn inh difference	DUX4 txn inh	DUX4 txn inh control	Compound
18	-2	-4	-2.1	COc1ccc(-c2ccc([C@H]3[C@H](C#N)N(C(=O)c4cccc(F)c4)[C@H]3CO)cc2)cc1
22	-3	-7	-4.1	Cc1cccc(-c2ccc([C@H]3[C@@H](CO)N4CCCCN(Cc5ccncc5)C[C@H]34)cc2)c1

More records:
#	DUX4 txn inh difference	DUX4 txn inh	DUX4 txn inh control	Compound
31	6	13	6.7	CS(=O)(=O)N1CC(=O)N2[C@@H](CO)[C@H](c3ccc(C#CC4CCCC4)cc3)[C@@H]2C1
32	1	15	13	O=C(c1ccncc1)N1CCCCN2[C@H](CO)[C@@H](c3ccc(-c4ccccc4)cc3)[C@@H]2C1
33	0	-2	-1.6	COc1ccc(S(=O)(=O)Nc2ccc3c(c2)CC(=O)N([C@@H](C)CO)C[C@@H](C)[C@H](CN(C)S(=O)(=O)c2cn(C)cn2)O3)cc1
34	0	9	8.7	CCCC(=O)N1CC2(CN(C)C2)c2c(n(C)c3cc(OC)ccc23)[C@@H]1CO
35	2	8	5.4	CCC(=O)Nc1ccc2c(c1)C(=O)N(C)C[C@@H](OC)[C@H](C)CN(C(=O)NC1CCCCC1)[C@H](C)CO2
36	0	3	3.8	CO[C@H]1CN(C)C(=O)c2cc(NC(=O)NC(C)C)ccc2OC[C@@H](C)N(Cc2ccccc2)C[C@H]1C
37	3	13	9.6	O=C(C[C@H]1CC[C@@H]2[C@H](COC[C@H](O)CN2C(=O)c2ccncc2)O1)NCc1cccc(F)c1
38	1	-2	-3.1	CN(C)CC#Cc1ccc([C@H]2[C@@H](CO)N3CCCCN(C(=O)Nc4cc(F)ccc4F)C[C@H]23)cc1
39	-12	-7	4.8	CCS(=O)(=O)Nc1ccc2c(c1)C(=O)N(C)C[C@H](OC)[C@@H](C)CN(CC1CCCCC1)[C@@H](C)CO2
40	-1	2	2.7	C[C@@H]1CCCCO[C@H](CN(C)C(=O)c2ccccc2)[C@@H](C)CN([C@H](C)CO)C(=O)c2cc(NC(=O)C3CCCCC3)ccc2O1
41	0	-2	-2.1	CO[C@@H](CN(C)Cc1cc(F)ccc1F)[C@H](C)CN(C(=O)Nc1ccc(C(F)(F)F)cc1)[C@@H](C)CO
42	-1	2	2.6	CS(=O)(=O)Nc1ccc2c(c1)[C@@H]1C[C@H](CC(=O)NCc3cccc(F)c3)O[C@@H](CO)[C@@H]1O2
43	-1	2	2.9	CN(C)CCCNC(=O)C[C@@H]1CC[C@@H]2[C@H](COc3ccc(NS(C)(=O)=O)cc3C(=O)N2C)O1
44	14	25	10	COc1ccc2c3c(n(C)c2c1)[C@H](CO)N(S(C)(=O)=O)CC31CCN(Cc2nccs2)CC1
45	13	?	-5.1	CN(C)C(=O)c1ccc(-c2ccc(C3[C@@H]4CN(C(=O)C5CC5)C[C@H]3N4)cc2)cc1 (some centres not stated)
46	.	?	.	O=C(C[C@@H]1CC[C@@H]2[C@H](COC[C@H](O)CN2Cc2cccc(Cl)c2)O1)NCC1CCCCC1
47	16	9	-6.6	CCCNC(=O)Nc1ccc2c(c1)C(=O)N(C)[C@H]1CC[C@H](CC(=O)O)O[C@H]1CO2
48	.	?	.	COc1cccc(-c2ccc([C@@H]3[C@@H](CO)N4CCCCN(S(=O)(=O)c5cccs5)C[C@H]34)cc2)c1
49	18	27	8.7	CC(C)NC(=O)N1CCCCN2[C@@H](CO)[C@@H](c3ccc(C#C[C@@H](C)O)cc3)[C@@H]2C1
50	-3	-3	0.7	CNC[C@H]1Oc2cc(-c3ccccc3OC)ccc2S(=O)(=O)N([C@@H](C)CO)C[C@@H]1C
51	8	3	-5.3	CO[C@H]1CC[C@@H]2CCN(C)C(=O)CCCN(C)C(=O)c3cccc(C#N)c3OC[C@@H]1O2
52	-3	-1	1.5	N#C[C@@H]1[C@@H](c2ccccc2)[C@H](CO)N1C(=O)Nc1cccc(F)c1
53	-3	4	7.0	C[C@@H]1CN([C@H](C)CO)C(=O)CCCn2cc(nn2)CO[C@H]1CN(C)S(=O)(=O)c1cccc(F)c1
54	1	1	0.0	COCC(=O)Nc1ccc2c(c1)OC[C@@H](C)N(C)C[C@@H](C)[C@@H](OC)CN(C)C2=O
55	.	?	.	COc1ccc2c3c([nH]c2c1)[C@H](CO)N(Cc1ccccc1)CC31CCN(C(=O)NC(C)C)CC1
56	-3	-2	0.7	C[C@H](CO)N1C[C@H](C)[C@@H](CN(C)S(=O)(=O)c2cn(C)cn2)Oc2ccc(NC(=O)C3CC3)cc2CC1=O
57	5	4	-1.1	CNC(=O)C[C@H]1CC[C@@H]2[C@H](COc3ccc(NC(=O)NC4CCCC4)cc3C(=O)N2C)O1
58	.	?	.	C/C=C/c1ccccc1[C@@H]1[C@@H](CO)N(S(=O)(=O)c2cccc(F)c2)[C@H]1C#N
59	-1	6	6.8	CCCNC(=O)Nc1ccc2c(c1)OC[C@H](C)N(S(C)(=O)=O)C[C@@H](C)[C@@H](OC)CN(C)C2=O
60	-1	-2	-1.1	Cc1noc(C)c1NC(=O)Nc1ccc2c(c1)C(=O)N([C@@H](C)CO)C[C@H](C)[C@@H](CN(C)S(=O)(=O)c1cccs1)OCCCC[C@H](C)O2
61	-2	0	1.7	CO[C@H]1CN(C)C(=O)c2ccc(NS(=O)(=O)c3ccc(C)cc3)cc2OC[C@H](C)N(C)C[C@H]1C
62	1	0	-1.0	CN(C)CCCNC(=O)C[C@@H]1CC[C@@H](NS(=O)(=O)c2ccccc2)[C@H](CO)O1
63	-4	0	3.7	Cc1ccccc1-c1ccc2c(c1)O[C@@H](CN(C)Cc1ccncc1)[C@@H](C)CN([C@@H](C)CO)S2(=O)=O
64	-7	-9	-2.1	CC=Cc1ccc2n(c1=O)C[C@H]1[C@H](CO)[C@@H](C(=O)N(C)C)[C@@H]2N1CC1CCCCC1 (mixture of isomers)
65	4	5	0.4	C[C@@H]1CCCCO[C@@H](CN(C)C(=O)NC2CCCCC2)[C@H](C)CN([C@H](C)CO)C(=O)c2cc(N(C)C)ccc2O1
66	-1	-1	0.0	Cc1noc(C)c1S(=O)(=O)Nc1ccc2c(c1)C(=O)N([C@@H](C)CO)C[C@@H](C)[C@H](CN(C)Cc1ccc(C(=O)O)cc1)OCCCC[C@H](C)O2
67	-3	-3	0.1	COc1ccc(S(=O)(=O)N(C)C[C@@H]2Oc3ccc(NC(=O)CCN4CCOCC4)cc3CC(=O)N([C@H](C)CO)C[C@H]2C)cc1
68	-2	-3	-1.2	CO[C@@H]1CC[C@H]2CCN(C)C(=O)[C@H](C)CN(C)C(=O)c3cccc(C#N)c3OC[C@@H]1O2
69	2	11	8.9	C/C=C/c1ccc([C@@H]2[C@H]3CN(Cc4ccc(F)cc4)CC(=O)N3[C@H]2CO)cc1

Only DUX4 txn inh difference (6 entries from above):
| nr | SMILES | DUX4 txn inh difference |
| --- | --- | --- |
| 61 | CO[C@H]1CN(C)C(=O)c2ccc(NS(=O)(=O)c3ccc(C)cc3)cc2OC[C@H](C)N(C)C[C@H]1C | -2 |
| 62 | CN(C)CCCNC(=O)C[C@@H]1CC[C@@H](NS(=O)(=O)c2ccccc2)[C@H](CO)O1 | 1 |
| 63 | Cc1ccccc1-c1ccc2c(c1)O[C@@H](CN(C)Cc1ccncc1)[C@@H](C)CN([C@@H](C)CO)S2(=O)=O | -4 |
| 64 | CC=Cc1ccc2n(c1=O)C[C@H]1[C@H](CO)[C@@H](C(=O)N(C)C)[C@@H]2N1CC1CCCCC1 (mixture of isomers) | -7 |
| 65 | C[C@@H]1CCCCO[C@@H](CN(C)C(=O)NC2CCCCC2)[C@H](C)CN([C@H](C)CO)C(=O)c2cc(N(C)C)ccc2O1 | 4 |
| 66 | Cc1noc(C)c1S(=O)(=O)Nc1ccc2c(c1)C(=O)N([C@@H](C)CO)C[C@@H](C)[C@H](CN(C)Cc1ccc(C(=O)O)cc1)OCCCC[C@H](C)O2 | -1 |
